# Source: PubChem BioAssay
# eIF4H FP inh: inhibitors of RNA binding by human eIF4H | Q15056 | eIF4H fluorescence polarization binding assay | inhibition, % at 35 µM | hit rate 0.94% among 290,000 | AID 2012;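 active means 50% or more with normal probe brightness, or confirmed in later tests; inconclusive means above 50% with abnormal brightness, or retests that disagree; inactive means below 50% or failed in later tests; about a fifth of its hits are not listed in these tables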;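 further: calls also rest on retests at 20 µM and on dose response follow-up; 0% = protein and probe with vehicle and 100% = probe without protein; strong numbers were not always called active; many hits fall short of the cut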
# CSC inhib: cancer stem cell inhibition | cancer stem cell-like cells viability, luminescence | hit rate 1.1% among 300,000 | inhibition, % at 7.5 µM;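 active means mean at 75% or more and at least half the replicates too; inconclusive means mean and replicates disagree; tested in HMLE shEcad cells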;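 further: 0% = median of negative and 100% = median of positive control wells; the first replicate is given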
# Yeast UUG start: modulators of start codon recognition fidelity in yeast | hit rate 0.13% among 350,000 | activity score, % at 18.7 µM | AID 602363 | S. cerevisiae UUG-firefly luciferase reporter, luminescence/redox ratio;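 active means replicate mean at a twofold rise or more, about +100% in these data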;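 further: firefly luciferase made from a UUG start codon reports start codon fidelity; reporter light over untreated wells divided by growth signal over untreated wells; some hits fall short of that in this replicate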
# Env fusion inh: inhibitors of HIV Env-mediated cell fusion. HeLa-JRFL Env/CEM21 cell fusion, luciferase. inhibition, % at 12.3 µM. hit rate 1.1% among 360,000;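 active means mean replicate inhibition score of at least 50 and every replicate individually at or above 50; inconclusive means only one of the two criteria met; inactive means mean below 50 and not all replicates reaching 50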;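 further: 0% = plate neutral controls and 100% = maraviroc near 300 nM; one replicate is shown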
# Rce1 inh: inhibitors of yeast Ras-converting enzyme. yeast membranes, quenched prenylated peptide cleavage fluorescence. calls only. hit rate 0.27% among 290,000;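 active means fall in fluorescence gain of 50% or more versus controls, with final raw signal at or below 3038400; inconclusive means same 50% fall but final raw signal above 3038400; inactive means fall in fluorescence gain under 50%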;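 further: plate controls were neutral control wells for no effect and wells lacking membranes for full effect; tested at 10 µM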
# Target sequence (Q03530 whole entry, looked up): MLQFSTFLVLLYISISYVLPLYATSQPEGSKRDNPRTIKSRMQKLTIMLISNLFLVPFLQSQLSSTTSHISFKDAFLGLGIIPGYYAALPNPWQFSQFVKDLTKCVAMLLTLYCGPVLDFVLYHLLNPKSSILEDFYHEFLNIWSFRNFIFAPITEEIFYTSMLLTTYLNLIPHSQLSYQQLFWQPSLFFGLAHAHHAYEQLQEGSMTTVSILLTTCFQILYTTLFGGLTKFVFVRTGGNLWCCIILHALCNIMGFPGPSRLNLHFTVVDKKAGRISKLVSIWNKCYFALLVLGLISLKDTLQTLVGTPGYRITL
# MT1-MMP act inh: MT1-MMP (human) activation inhibition. HT1080 RFP-PRO-GFP cells, GFP/RFP ratio fluorescence, overnight; percent of plate control window, DMSO zero. hit rate 0.061% among 360,000. GFP/RFP ratio change, % at 20 µM. AID 651647. P50281;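 active means GFP/RFP ratio change of at least 30% with cell ATP level not reduced by more than half and red fluorescence within 50% of control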; further: strong numbers were not always called active
#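 Test system: HT1080 RFP-PRO-GFP cells; Benchmarks: DMSO and RFP-L50D-GFP cell wells; Timing: cells overnight before dosing, compound overnight, 37 °C, 5% CO2; Compound: one 20 µM compound dose with 1% DMSO; Read-out: GFP/RFP fluorescence ratio.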
# PABP FP inh: PABP-poly(A) binding inhibition; PABP-poly(A) RNA binding, fluorescence polarization; hit rate 1% among 290,000; inhibition, % at 35 µM; P11940;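 active means 50% or more with normal probe brightness, or confirmed in later tests; inconclusive means above 50% with abnormal brightness, or retests that disagree; inactive means below 50% or failed in later tests; about a fifth of its hits are not listed in these tables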;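 further: calls also rest on retests at 20 µM and on dose response follow-up; controls were probe without protein and protein plus probe with vehicle; some compounds called inactive have numbers as strong as hits; many hits fall short of the cut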
# eIF4H FP inh retest: recorded beside eIF4H FP inh, whose call it bears; inhibition, %; compound at 20 µM; confirmation average;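 mean of two retest wells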
# PABP FP inh retest: recorded beside PABP FP inh, whose call it bears; inhibition, %; compound at 20 µM; confirmation repeats;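 mean of two retest wells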
# MT1-MMP act inh RFP: recorded beside MT1-MMP act inh, whose call it bears; RFP signal change, %; measured here: RFP expression control read;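 0 = vehicle wells; hits needed this value within 50% of zero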
# * marks the source's active call; other numbers are inactive results; i = inactive; ? = inconclusive; . = not tested or not shown; & = joins results of further samples. Only part of the results is shown; rates above refer to the full screens.
SMILES,eIF4H FP inh,CSC inhib,Yeast UUG start,Env fusion inh,Rce1 inh,MT1-MMP act inh,MT1-MMP act inh RFP,PABP FP inh,others
O=C(CN1C(=O)COc2ccc(S(=O)(=O)N3CCCCC3)cc21)NCc1ccccc1Cl,.,-19,-6,6,i,0,-2,.,
COC(=O)c1ccccc1NC(=O)c1noc2c1CCCC2,-13,-5,-5,-26,i,0,-7,7,
Cc1ccc(S(=O)(=O)N(CC(=O)N2CCc3ccccc3C2)c2ccc(Cl)c(Cl)c2)cc1,-4,16,-14,3,i,-7,-15,3,
Cc1ccc(S(=O)(=O)Oc2ccccc2[N+](=O)[O-])cc1,.,.,15,-2,.,0,-3,.,
C#CC[N+]1(CC#Cc2cccc(C)c2)CCCCC1,-1,-5,.,14,i,1,-4,5,
O=C(CNC1CC1)Nc1cc(C(F)(F)F)ccc1Cl,3,-7,-19,2,i,1,1,7,
CCOC(=O)N1CCC(N(CCOC)C(=O)Nc2ccc(CC)cc2)CC1,3,-5,0,.,i,0,1,7,
Cc1ccc(-n2c(C)nc3c(cnn3-c3ccc(F)cc3)c2=O)cc1,-6,0,4,.,i,4,-16,-2,
O=C(COC(=O)Cc1ccc(S(=O)(=O)N2CCOCC2)s1)Nc1ccccc1Cl,.,-12,-13,4,.,-2,3,.,
CN(C)/C=C(\C(=O)c1ccccc1)c1nnnn1-c1ccc(F)cc1,-2,-16,.,5,i,4,6,-8,
COC1OC(COC(=O)CNC(=O)OC(C)(C)C)C(O)C(O)C1O (stereo not drawn),1,.,.,-23,i,1,9,-8,
CC(C)CNC(=O)c1ccc(Cl)c(Cl)c1,-15,-19,-19,-55,i,0,0,47,
C[C@H](Nc1ncnc2sc3c(c12)CCC3)C(=O)O,-1,-9,-15,.,i,9,10,7,
CCOC(=O)c1[nH]c(C)c(C(=O)Nc2ccc3c(c2)OCCO3)c1C,5,2,-20,-49,i,3,4,12,
NC(=O)[C@@H]1CC2(CC(c3cccc(NC(=O)COc4ccc(Cl)cc4)c3)=NO2)CN1C(=O)COc1ccc(Cl)cc1 (stereo partly drawn),-2,30,4,19,i,13,-24,-2,
Cc1cccc(NC(=O)Cn2cnc3c(oc4ccccc43)c2=O)c1,-12,4,.,-18,i,0,0,?,
Cc1noc(C)c1NC(=O)Nc1cccc2c1O[C@H](CN(C)S(=O)(=O)c1ccc(F)cc1)[C@@H](C)CN([C@H](C)CO)C2=O,.,-6,-5&3,-18,.,-2,2,.,
CCCCn1c(SCC(N)=O)nnc1-c1ccco1,7,2,.,.,i,-4,4,7,
CC(C)(CNC(=S)NCCc1ccccc1)CNC(=S)NCCc1ccccc1,8,.,-31,13,.,-1,-16,14,
Cc1ccc(C(=O)O/N=C/C2=C(Cl)c3ccccc3CC2)cc1,-1,4,-14,.,i,-3,-2,-4,
Cc1ccnc(SCC(=O)Nc2sc3c(c2C#N)CCCC3)n1,-7,15,.,.,i,-6,-29,-9,
CC[C@]12c3[nH]c4ccc(OC)cc4c3CCN1C(=O)C(CC(=O)NCCN1CCOCC1)C[C@@H]2C(=O)N1CCN(C(=O)C2CC2)CC1 (stereo partly drawn),.,.,-18,-15,.,2,2,.,
CCOC(=O)CSc1nc(C)c2cc(OC)ccc2n1,0,.,-8,.,i,3,4,5,
O=c1oc2ccccc2c(Cl)c1CN1CCCCC1,11,-11,-16,13,i,-2,-6,0,
CCCCOc1ccc(/C(O)=C2/C(=O)C(=O)N(CCCOC)C2c2ccncc2)cc1C (stereo not drawn),-3,-8,-24,-22,i,6,3,11,
O=C(NCc1ccccn1)C(C(=O)c1ccc(F)cc1)n1ccccc1=O (stereo not drawn),7,-1,-30,-73,i,7,4,6,
O=C(/C=C/c1ccccc1)NCCS(=O)(=O)N1CCN(c2ccc(F)cc2)CC1,.,3,.,-9,i,-3,-5,.,
CCOC(=O)CSC1=NC(=O)/C(=C\c2ccc(Cl)cc2)S1,-16,36,-1,-111,i,-30,1,-12,
COc1ccc(C2=CC(=O)CC(c3ccc(F)cc3)C2)cn1 (stereo not drawn),.,15,3,-91,i,2,-2,.,
CCOCCCNC(=O)C(c1ccc(OC)cc1)N(Cc1ccc2c(c1)OCO2)C(=O)c1cnccn1 (stereo not drawn),-6,-5,.,4,i,-5,-3,16,
COc1ccc(NC(C)(C)c2nnnn2-c2c(C)cccc2C)cc1,1,3,.,8,i,1,-2,0,
Cc1ccccc1C(=O)N1CCN(c2ccc(NC(=O)c3cccc(OC(C)C)c3)cc2)CC1,-2,-6,-6,28,i,-6,-30,-2,
COc1ccc2c(ccc[n+]2[O-])c1,.,.,-7,-11,.,3,0,.,
O=C(CN1CCOCC1)Nc1ccc(-c2nc3ccccc3[nH]2)cc1,-7,-5,.,-130,i,11,5,2,
COc1ccccc1CN(C)C(=O)CSc1nnc(C2CC2)n1C1CC1,.,1,-17,3,.,-3,0,.,
Cc1nc(-c2ccc(S(=O)(=O)Nc3ccccc3C)cc2)co1,.,-1,-1,15,i,-5,-1,.,
Cc1cc(NCC2CCCCC2)nc2ccccc12,-19,35,-3,-21,i,4,-2,8,
COCCOC(=O)C1=C(C)N=C2SCCC(=O)N2C1c1cccs1 (stereo not drawn),-2,-11,.,-2,i,-1,0,-1,
Cc1ccc(/C=N\NC(=O)c2ccc(Cn3cc(Br)c([N+](=O)[O-])n3)o2)o1,2,7,.,3,i,3,0,-2,
O=C(CN1CCCCC1)NNc1nc(-c2ccccc2)c2cc(Br)ccc2n1,-8,8,-13,-5,i,-2,-3,-6,
COC(=O)c1ccc(NC(=O)CN(c2ccc(OC)cc2)S(C)(=O)=O)cc1,-13,2,3,-146,i,12,-1,-6,
CN(c1ccc(OC(=O)CN2C(=O)NC3(CCCC3)C2=O)cc1)S(=O)(=O)c1ccccc1,.,-9,-4,-13,i,-3,-3,.,
Cc1ccc(S(=O)(=O)N/N=C/c2cccc([N+](=O)[O-])c2)cc1,-8,-5,7,23,i,1,2,-4,
O=C(Nc1ccc2c(c1)OCCO2)N1CCOCC1,-4,-3,.,-5,i,1,2,18,
COc1ccc(N2CCN(c3oc(COc4ccccc4Cl)nc3C#N)CC2)cc1,-1,3,-14,-105,i,3,-7,0,
COc1ccc(CNC(=O)CSc2nnc3c(Cl)cc(C(F)(F)F)cn23)cc1OC,1,.,.,-13,i,-2,0,-2,
COc1ccc(-c2sc3cc(OC)c(OC)cc3c2-c2ccc(O)cc2)cc1,.,137*,-13,-55,.,1,-6,.,
Cc1ccc(NC(=O)CS(=O)(=O)c2cn(C)c3ccccc23)c(C)c1,-5,0,12,6,i,6,-4,-5,
CCOC(=O)Cc1csc(NC(=O)CCc2ccc(S(=O)(=O)N3CCOCC3)cc2)n1,-9,-5,-12,.,.,2,-4,-2,
C=CCn1c(=O)c2ccccc2n2c(SCC(=O)NC(C)C)nnc12,-12,.,-17,-9,i,3,3,6,
CC12CCC(=O)N1C(C(=O)Nc1nnc(SCc3ccccc3F)s1)CS2 (stereo not drawn),-23,-15,-2,.,i,-4,-1,-2,
O=C(Nc1ccc2oc(-c3cccnc3)nc2c1)c1ccc([N+](=O)[O-])o1,8,.,.,-81,i,-3,-14,-1,
CN(C)CCC(Oc1ccccc1OCc1ccccc1)c1ccccc1 (stereo not drawn),.,-18,.,1,i,-4,-4,.,
O=C(NCc1n[nH]c(=S)n1-c1ccc(F)cc1)c1ccc(S(=O)(=O)N2CCCCC2)cc1,-11,-14,-8,0,i,4,2,-7,
COc1cc(C(=O)Nc2ccccn2)cc(OC)c1OC,7,-4,-7,-46,i,-1,0,7,
CN1CCN(C(c2ccc(Cl)cc2)c2cc(Cl)c3cccnc3c2O)CC1 (stereo not drawn),6,-16,-63,8,i,-17,-7,-6,
Fc1ccccc1Cn1nnc2c(-n3ccnc3)ncnc21,-2,-2,-15,-39,i,-4,-2,-4,
COc1ccccc1Nc1nc(-c2cccc([N+](=O)[O-])c2)cs1,10,74,.,-60,i,1,-7,0,
Cc1ccc(/C=C2\Oc3cc(OCC(=O)NN)ccc3C2=O)o1,73*,-1,-8,7,i,-6,1,4,eIF4H FP inh retest=76*;PABP FP inh retest=34
COc1cccc(NC(=O)Nn2cnnc2)c1,-2,1,0,-11,i,1,0,-8,
# Other entries follow.
SMILES,eIF4H FP inh,CSC inhib,Yeast UUG start,Env fusion inh,Rce1 inh,MT1-MMP act inh,MT1-MMP act inh RFP,PABP FP inh,others
COc1cc2nc(SCc3ccc(C(F)(F)F)cc3)n(Cc3cccs3)c(=N)c2cc1OC,0,15,-20,11,i,2,2,-5,
Cc1ccc2nc(NC(=O)c3ccc(N4C(=O)CCC4=O)cc3)sc2c1,18,-9,.,2,i,0,3,12,
Cc1cccc(NC(=O)CSc2nc(N)c(NC(=O)c3ccccc3F)c(=O)[nH]2)c1,-7,-6,-15,.,i,1,3,-1,
COc1ccc(CN2C[C@H](Cc3ccccc3)[C@@H](CC(=O)Nc3ccccc3)C2=O)cc1,4,10,.,-4,i,.,.,10,

# An excerpt from further up, for reference:
SMILES,eIF4H FP inh,CSC inhib,Yeast UUG start,Env fusion inh,Rce1 inh,MT1-MMP act inh,MT1-MMP act inh RFP,PABP FP inh,others
CC12CCC(=O)N1C(C(=O)Nc1nnc(SCc3ccccc3F)s1)CS2 (stereo not drawn),-23,-15,-2,.,i,-4,-1,-2,
O=C(Nc1ccc2oc(-c3cccnc3)nc2c1)c1ccc([N+](=O)[O-])o1,8,.,.,-81,i,-3,-14,-1,
CN(C)CCC(Oc1ccccc1OCc1ccccc1)c1ccccc1 (stereo not drawn),.,-18,.,1,i,-4,-4,.,
O=C(NCc1n[nH]c(=S)n1-c1ccc(F)cc1)c1ccc(S(=O)(=O)N2CCCCC2)cc1,-11,-14,-8,0,i,4,2,-7,
COc1cc(C(=O)Nc2ccccn2)cc(OC)c1OC,7,-4,-7,-46,i,-1,0,7,
CN1CCN(C(c2ccc(Cl)cc2)c2cc(Cl)c3cccnc3c2O)CC1 (stereo not drawn),6,-16,-63,8,i,-17,-7,-6,
Fc1ccccc1Cn1nnc2c(-n3ccnc3)ncnc21,-2,-2,-15,-39,i,-4,-2,-4,
COc1ccccc1Nc1nc(-c2cccc([N+](=O)[O-])c2)cs1,10,74,.,-60,i,1,-7,0,
Cc1ccc(/C=C2\Oc3cc(OCC(=O)NN)ccc3C2=O)o1,73*,-1,-8,7,i,-6,1,4,eIF4H FP inh retest=76*;PABP FP inh retest=34
COc1cccc(NC(=O)Nn2cnnc2)c1,-2,1,0,-11,i,1,0,-8,
COc1cc2nc(SCc3ccc(C(F)(F)F)cc3)n(Cc3cccs3)c(=N)c2cc1OC,0,15,-20,11,i,2,2,-5,
Cc1ccc2nc(NC(=O)c3ccc(N4C(=O)CCC4=O)cc3)sc2c1,18,-9,.,2,i,0,3,12,
Cc1cccc(NC(=O)CSc2nc(N)c(NC(=O)c3ccccc3F)c(=O)[nH]2)c1,-7,-6,-15,.,i,1,3,-1,
COc1ccc(CN2C[C@H](Cc3ccccc3)[C@@H](CC(=O)Nc3ccccc3)C2=O)cc1,4,10,.,-4,i,.,.,10,
